VACV Venus inh – vaccinia inhibition (Venus reporter) | Vaccinia virus Venus reporter expression, fluorescence | Potency, µM (top dose mostly 36.5 µM), for inactives: top-dose activity change, negative = inhibition, actives largely listed as inhibitors | 330,000 compounds, 0.46% hits | AID 720580; active means well fitted inhibition curve with a large enough effect; inconclusive means small, poorly fitted or top-dose-only effect; inactive means no such curve, though single readings can be large or run the other way; tested in A549 cells; also: nearly all actives have a fitted effect of over 30% in size; inactives centre near -10
VACV mCherry inh – vaccinia inhibition (mCherry reporter). Vaccinia virus mCherry reporter infection, fluorescence; about a quarter of the inactives have no number. 310,000 compounds, 0.63% hits. Potency, µM (doses to about 36.5 µM), for the others: at the highest dose activity change, negative = inhibition, hits mostly inhibitors. AID 720579; active = well fitted inhibition curve with a large enough effect; inconclusive = small, poorly fitted or top-dose-only effect; inactive = no such curve, though single readings can be large or run the other way; tested in A549 cells; also: nearly all actives have a fitted effect of over 35% in size; inactives centre near -10
An asterisk follows results filed as active; i = inactive; ? = inconclusive; / = no result given; & = joins results of further samples; [ ] = dose if it differs, or a comment. % is scaled to controls: 0 for no effect and ±100 for the full control effect; potency is read from the fitted curve at half-maximal effect.

SMILES	VACV Venus inh	VACV mCherry inh
N#C/C=C/N1CCN(Cc2ccc3c(c2)OCO3)CC1	-5%	-7%
Cc1ccc(S(=O)(=O)NC(=O)Nc2cc(C)on2)cc1	5%	2%
Cc1ccc(CCNC(=O)C2CC(c3cccc(F)c3)=NO2)cc1 (stereo not drawn)	-10%	i
CC1(C(=O)OCC(=O)NC(=O)NCc2ccccc2)CC1(Cl)Cl (stereo not drawn)	-12%	i
COCCNC(=O)CSc1nc(N)c(NC(=O)c2ccco2)c(=O)[nH]1	5%	-9%
Cc1nc(-c2ccc(C(=O)Nc3cccc(F)c3)cc2)cs1	-5%	0%
Cc1cccc(C)c1OCC(O)CN1CCN(c2ccccc2)CC1 (stereo not drawn)	-15%	-12%
CCCC(=O)Nc1nnc(Sc2ccc(N(C)C)cc2)s1	-16%	-16%[1.46 µM]
O=C(CSc1nccc(=O)[nH]1)Nc1ccc(Br)c(Cl)c1	-2%	/
Cc1ccc(S(=O)(=O)N2CCC(C(=O)N3CCC[C@H]3C(=O)NCc3ccco3)CC2)cc1	-3%	-11%
COc1ccc(S(=O)(=O)N(CCc2ccccc2)CC(=O)NCCCO)cc1	0%	-15%
Cc1ccc(C(C(=O)NC(C)(C)C)N(Cc2ccccc2)C(=O)c2snc(C(N)=O)c2N)o1 (stereo not drawn)	-1%	-2%
NC(=O)/C=C\C(=O)Nc1cccc(C(F)(F)F)c1	-18%	?
Clc1ccc(OCc2nn3c(C4CCCCC4)nnc3s2)cc1	?	/
O=C1COc2ccc(C(=O)COC(=O)CCCOc3ccccc3)cc2N1	-13%	-14%
COc1ccc(N2CC(C(=O)Nc3cc(C(F)(F)F)ccc3N3CCCC3)CC2=O)c(OC)c1 (stereo not drawn)	-25%	?
COc1ccc(-c2noc(CSc3nnc(-c4ccccc4)n3-c3ccc(F)cc3)n2)c(OC)c1	-4%	-16%
O=C(OCC(=O)N1CCN(c2ccccc2)CC1)c1cc(Cl)ccc1[N+](=O)[O-]	-15%	-23%
CCOc1ccc(-c2nc(C#N)c(NCc3ccc4c(c3)OCO4)o2)cc1	-12%	?
COc1ccc([C@H]2N[C@]3(CCCN(Cc4ccc(C)cc4)C3=O)[C@H]3C(=O)N(C)C(=O)[C@@H]23)cc1	-7%	i
Cc1ccc(S(=O)(=O)N2CCCC2CNC(=O)c2ccc3c(c2)OCO3)cc1 (stereo not drawn)	-20%	?
CN(CC(=O)NC1CCCCCC1)S(=O)(=O)c1ccc2c(c1)n(C)c(=O)c(=O)n2C	-1%	5%
CC(Sc1sc(=S)sc1SC(C)C(=O)O)C(=O)O (stereo not drawn)	-5%	-11%
CCN(CC)c1ccc(NC(=O)Cn2ncc3c(C)n(Cc4ccccc4F)c(C)c3c2=O)c(C)c1	-3%&3%	-3%&-7%
CCN(CC)CCCN1C(=O)C(=O)/C(=C(/O)c2ccc(C)cc2)C1c1ccccn1 (stereo not drawn)	-6%	-14%

(cont.)
SMILES	VACV Venus inh	VACV mCherry inh
NC(=O)c1ccccc1NC(=O)c1cc(S(=O)(=O)N2CCCCC2)ccc1N1CCOCC1	-13%	-3%
C/C(=N\OCC(=O)Nn1c(C)nc2ccccc2c1=O)c1ccccc1	-13%	-3%
Cc1cc2cc3c(cc2nc1SCc1ccc(C(=O)O)cc1)OCCO3	-10%	i
O=C(/C=C/c1ccc(O)cc1)c1ccccc1O	-7%	-19%
Cc1ccc(C(=O)Nc2ccc(F)cc2F)o1	7%	-4%
CCc1ccccc1NC(=O)Cn1cccc1C1=NC(c2ccccc2)CO1 (stereo not drawn)	-4%	i
Cn1c(=O)c2c(-c3ccccc3)n(-c3cc(C(=O)O)ccc3O)cc2n(C)c1=O	0%	6%
CCCCN(C(=O)CCC(=O)Nc1cc(C)on1)C(C(=O)NC1CCCC1)c1ccccc1OCC (stereo not drawn)	-11%	1%
CC(=O)Nc1ccc(NC(=O)C(Sc2ccccc2)c2ccccc2)cc1 (stereo not drawn)	-15%	-7%
Cc1ccc(-n2nnc(-c3cccnc3)n2)cc1	-14%	i
Cn1c(=O)[nH]c(=O)c2c1nc1n(CCO)c(-c3ccccc3)cn21	8%	-9%
COc1cc2c(c(O)c1OC)-c1c(cc(OC)c(OC)c1OC)C[C@@H](C)[C@@H](C)C2	-13%	?
CCN(CC)CCN1C(=O)C(O)=C(C(C)=O)C1c1ccc(OC)c(OC)c1 (stereo not drawn)	9%	/
COc1cccc(N2CCN(S(=O)(=O)c3ccc4c(c3)NC(=O)CS4)CC2)c1	-3%[7.34 µM]	-17%[7.34 µM]
COc1cc(C#Cc2c(-c3cncn3C)n(C)c3ccc(-c4cc(OC)c(OC)c(OC)c4)cc23)cc(OC)c1	11µM*	?
COc1ccc(CNC(=O)CCSCc2ccc(C)cc2)cc1	-7%	i
Cc1ccc(S(=O)(=O)NN=CC=CC=NNS(=O)(=O)c2ccc(C)cc2)cc1	0%	-5%
CCOC(=O)c1ccc(NC(=O)C(=O)NCc2ccncc2)cc1	-13%	-15%
Cc1ccc([N+](=O)[O-])cc1NC(=O)Nc1cccc(F)c1	?	-27%
COc1ccc(C2C(C(=O)c3sc(C)nc3C)=C(O)C(=O)N2CCN(C)C)cc1 (stereo not drawn)	9%	/
Fc1cccc(Cc2c(-c3ccccc3)nc3c4ccccc4ccn23)c1	-8%	-3%
Cc1cc(-c2ccccc2)nc(N(C)NC(=O)C(C)(C)C)c1S(C)(=O)=O	8%	2%
COc1ccc(Cl)cc1NC(=O)C1Cc2ccccc2CN1S(C)(=O)=O (stereo not drawn)	-18%	i
CC(CNC(=O)c1ccc(C#N)cc1)NC(=O)c1ccc(C#N)cc1 (stereo not drawn)	-13%	-10%
O=C(OCc1cn([C@@H]2CN(C(=O)C3CCCCC3)[C@@H](c3ccccc3)C[C@H]2O)nn1)c1ccccc1	-1%	i

Additional compounds follow:
SMILES	VACV Venus inh	VACV mCherry inh
CCC(C)NC(=O)CSc1nc2scc(-c3ccccc3)c2c(=O)[nH]1 (stereo not drawn)	-9%	0%
COc1cccc2cc(C(=O)Nc3ccc(CC(=O)O)cc3)c(=O)oc12	12%	5%
O=C(Nc1ccc(F)cc1F)c1cnn(-c2ccc(F)cc2)c1-n1cccc1	9%	2%
CC(=O)Nc1ccc(NC(=O)CN2C(=O)COc3ccc(S(=O)(=O)N4CCOCC4)cc32)cc1	0%	-10%
Cc1c(C(=O)NCc2cccc(Cl)c2)sc2nc[nH]c(=O)c12	-17%	-18%
CCOC(=O)N1CCC(NC(=O)c2ccc(CS(=O)c3ccc(Cl)cc3)o2)CC1 (stereo not drawn)	-14%	-1%
CCn1c(O)c(N=NC(=O)c2cccc(S(=O)(=O)N3CCCCC3)c2)c2ccccc21	-30%	-2%
O=C(Nc1ncccc1O)c1cccc(S(=O)(=O)N2CCc3ccccc32)c1	-16%	/
O=C(NNS(=O)(=O)c1ccc(F)cc1)C1CCN(Cc2cccc(F)c2)CC1	-14%	-4%
CC1(C(=O)NS(=O)(=O)c2ccccc2Cl)CCN1C(=O)c1cccc2ccccc12 (stereo not drawn)	3%	11%
CN1C(C(=O)Nc2ccc(OC(F)(F)F)cc2)=CC(c2cccs2)=NS1(=O)=O	-3%	-13%
O=C1NCCNC1(c1c[nH]c2ccccc12)C(F)(F)F (stereo not drawn)	-10%	i
COc1ccc(/C=C/C(=O)O)cc1Cl	2%	i
CCCOC(=O)C1[C@H]2C(=O)N(CC3CCCO3)C[C@]23C=C[C@H]1O3 (stereo partly drawn)	-11%	/
O=C(NCCC1=CCCCC1)C(=O)NCc1ccccc1	-10%	-5%
O=C(CSc1nc(-c2ccccc2)c(-c2ccccc2)o1)N1CCCCC1	9%	i
CC(c1ccccc1)n1c(SCC(=O)Nc2ccccc2)n[nH]c1=O (stereo not drawn)	-10%	i
Nc1nonc1-n1nnc(C(=O)N/N=C/c2cc(Br)cs2)c1-c1ccccc1	-21%	-28%
CC(=O)Nc1cccc(Oc2ncnc3scc(-c4ccccc4)c23)c1	-26%	i
CC(C)c1nc(CNC(=O)CC2C(=O)NCCN2Cc2ccoc2)cs1 (stereo not drawn)	4%	-5%
Cc1cc(C)c2c(=O)cc(CSc3n[nH]c(C)n3)[nH]c2c1	-1%	3%
CC(C)OCCCNC(=O)CCCn1c(SCC(=O)c2ccc(Br)cc2)nc2c(sc3ccccc32)c1=O	-1%	-6%
CC(C)=CCCC1(C)C=Cc2c(O)c3c(c(CC=C(C)C)c2O1)OC12C(CC4CC1C(C)(C)OC2(C/C=C(/C)C(=O)O)C4O)C3=O (stereo not drawn)	-9%	i
CC(=O)CC(=O)Nc1ccc2ccccc2c1	-11%	i
Nc1c(C(=O)NCCN2CCOCC2)c2nc3ccccc3nc2n1-c1ccc2c(c1)OCO2	-14%	-10%

(listing goes on)
SMILES	VACV Venus inh	VACV mCherry inh
C/C(=N/OC(=O)c1ccc(Br)cc1)c1ccc(C)cc1	-10%	-7%
COc1ccc(NC(=O)c2noc3c2CCC3)cc1	-15%	-29%
CC(C)C(=O)Nc1ccc(O)c(-c2csc(N)n2)c1	-4%	-29%
CC(=O)Nc1nn(C)c2nc(C)cc(C)c12	-5%	-11%
O=C(Cn1cnc2c(nnn2Cc2ccc(Cl)cc2)c1=O)NCc1ccco1	-22%	-12%
CN1CCC(OC(=O)c2cc3cc(Br)ccc3oc2=O)CC1	-10%	i
Cc1cc(C(=O)COc2ncnc3sccc23)c(C)n1C1CC1	-15%	-2%
Cc1ccc(CNC(=O)c2c(C)oc3ncnc(N4CCOCC4)c23)cc1	-8%	-14%
CC1Oc2ccccc2N(CC(=O)NCCc2ccccc2)C1=O (stereo not drawn)	-2%	-14%
COc1ccc(NC(=S)N2CCc3ccccc3C2)cc1OC	-12%	-7%
Cc1ccc(C(=O)NCC(=O)Nc2ncccc2C)s1	-4%	-13%
Clc1ccc(-c2ncc3ccccn23)c(Cl)c1	-14%	i
CC(C)C(c1nnnn1Cc1ccccc1)N(Cc1ccco1)Cc1cccs1 (stereo not drawn)	1%	-14%
CCc1nc2c(OCC=C(C)C)cccn2c1N(C)C(=O)c1ccccc1F	-14%	?
O=C(C1CCC1)N1CCCc2cc(S(=O)(=O)Nc3ccc(F)cc3)ccc21	-22%	-16%
CCOC(=O)CC(NC(=O)c1ccco1)c1ccc(C)cc1 (stereo not drawn)	-11%	-11%
Cc1nnc(N2CCCC(C(=O)NCCc3ccc(Cl)cc3)C2)c2nn(-c3ccccc3)c(C)c12 (stereo not drawn)	-27%	-20%
CC(=O)c1ccc(NC(=O)C2CCC(CNS(=O)(=O)c3cccc4nsnc34)CC2)cc1 (stereo not drawn)	-2%	-5%
COC(=O)c1cc(S(=O)(=O)N2CCOCC2)c(N2CCOCC2)cc1N1CCOCC1	-15%	-9%
CC(C)(C)NC(=O)COC(=O)c1cc(Cl)ccc1[N+](=O)[O-]	-12%	-7%
Cc1ccc(NC(=O)c2c([N+](=O)[O-])c(C(C)(C)C)nn2C)cc1	-20%	-25%
CCCCNC(=O)CCCCC(=O)N/N=C/c1cccc(Cl)c1	-5%	i
NC(C(=O)O)C(CC(=O)O)c1ccc(Cl)cc1 (stereo not drawn)	-11%	-9%
CN(C)c1nc(-c2ccc([N+](=O)[O-])cc2)cs1	-28%	/
CCc1ccc(NC(=O)CSc2nc3c(c(=O)[nH]2)CN(Cc2ccc(C)cc2)CC3)cc1	-1%	-15%

More entries
SMILES	VACV Venus inh	VACV mCherry inh
Cc1noc(C)c1C(=O)OCC(=O)Nc1ccccc1Oc1ccccc1	-15%	/
O=C(C1CCN(S(=O)(=O)Cc2ccccc2)CC1)N1CCN(c2cccc(Cl)c2)CC1	-1%	-9%
COc1ccc(C2OC(=O)CC2C(=O)NCc2ccc(Cl)cc2)cc1OC (stereo not drawn)	-11%	-21%
COc1cccc(/C=c2\sc3nc(-c4cccs4)nn3c2=O)c1OC	-10%	-18%
CCOCCOC(=O)c1[nH]c2c(c1C)C(=O)CC(c1ccc(OC)c(OC)c1)C2 (stereo not drawn)	-7%	-4%
CCOC(=O)c1ccccc1NC(=O)COC(=O)c1ccccc1C(=O)N(C)c1ccccc1	-23%	-14%
COc1ccc(C2CCCN2C(=O)Nc2ccc(C)c(C)c2)cc1OC (stereo not drawn)	-22%	i

Among those listed so far, 13 have an aryl thioether with sulfur outside any ring.
SMILES	VACV Venus inh	VACV mCherry inh
COCCNC(=O)CSc1nc(N)c(NC(=O)c2ccco2)c(=O)[nH]1	5%	-9%
CCCC(=O)Nc1nnc(Sc2ccc(N(C)C)cc2)s1	-16%	-16%[1.46 µM]
O=C(CSc1nccc(=O)[nH]1)Nc1ccc(Br)c(Cl)c1	-2%	/
COc1ccc(-c2noc(CSc3nnc(-c4ccccc4)n3-c3ccc(F)cc3)n2)c(OC)c1	-4%	-16%
CC(Sc1sc(=S)sc1SC(C)C(=O)O)C(=O)O (stereo not drawn)	-5%	-11%
Cc1cc2cc3c(cc2nc1SCc1ccc(C(=O)O)cc1)OCCO3	-10%	i
CC(=O)Nc1ccc(NC(=O)C(Sc2ccccc2)c2ccccc2)cc1 (stereo not drawn)	-15%	-7%
CCC(C)NC(=O)CSc1nc2scc(-c3ccccc3)c2c(=O)[nH]1 (stereo not drawn)	-9%	0%
O=C(CSc1nc(-c2ccccc2)c(-c2ccccc2)o1)N1CCCCC1	9%	i
CC(c1ccccc1)n1c(SCC(=O)Nc2ccccc2)n[nH]c1=O (stereo not drawn)	-10%	i
Cc1cc(C)c2c(=O)cc(CSc3n[nH]c(C)n3)[nH]c2c1	-1%	3%
CC(C)OCCCNC(=O)CCCn1c(SCC(=O)c2ccc(Br)cc2)nc2c(sc3ccccc32)c1=O	-1%	-6%
CCc1ccc(NC(=O)CSc2nc3c(c(=O)[nH]2)CN(Cc2ccc(C)cc2)CC3)cc1	-1%	-15%

High-throughput results deposited in PubChem by National Center for Advancing Translational Sciences (NCATS).
